Screening results (PubChem BioAssay)
KCNQ2 pot = KCNQ2 (rat) channel potentiation; B-score at 10 µM; CHO-K1 KCNQ2, FluxOR thallium flux fluorescence; active compounds read high; O88943; AID 2239; 0.54% of 310,000 active;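 active = fluorescence ratio B-score at least 3 SD of library B-scores, with initial fluorescence B-score within 3 SD, cut at about 5.3 in these data; same plate scores as AID 2156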;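 also: B-score of peak minus minimum over baseline fluorescence ratio after K+ and Tl+ stimulus; positive B-score means potentiation of KCNQ2 with more thallium influx and brighter signal; only the inactives scoring about 0 or higher are listed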
Target sequence (O88943 whole entry, looked up): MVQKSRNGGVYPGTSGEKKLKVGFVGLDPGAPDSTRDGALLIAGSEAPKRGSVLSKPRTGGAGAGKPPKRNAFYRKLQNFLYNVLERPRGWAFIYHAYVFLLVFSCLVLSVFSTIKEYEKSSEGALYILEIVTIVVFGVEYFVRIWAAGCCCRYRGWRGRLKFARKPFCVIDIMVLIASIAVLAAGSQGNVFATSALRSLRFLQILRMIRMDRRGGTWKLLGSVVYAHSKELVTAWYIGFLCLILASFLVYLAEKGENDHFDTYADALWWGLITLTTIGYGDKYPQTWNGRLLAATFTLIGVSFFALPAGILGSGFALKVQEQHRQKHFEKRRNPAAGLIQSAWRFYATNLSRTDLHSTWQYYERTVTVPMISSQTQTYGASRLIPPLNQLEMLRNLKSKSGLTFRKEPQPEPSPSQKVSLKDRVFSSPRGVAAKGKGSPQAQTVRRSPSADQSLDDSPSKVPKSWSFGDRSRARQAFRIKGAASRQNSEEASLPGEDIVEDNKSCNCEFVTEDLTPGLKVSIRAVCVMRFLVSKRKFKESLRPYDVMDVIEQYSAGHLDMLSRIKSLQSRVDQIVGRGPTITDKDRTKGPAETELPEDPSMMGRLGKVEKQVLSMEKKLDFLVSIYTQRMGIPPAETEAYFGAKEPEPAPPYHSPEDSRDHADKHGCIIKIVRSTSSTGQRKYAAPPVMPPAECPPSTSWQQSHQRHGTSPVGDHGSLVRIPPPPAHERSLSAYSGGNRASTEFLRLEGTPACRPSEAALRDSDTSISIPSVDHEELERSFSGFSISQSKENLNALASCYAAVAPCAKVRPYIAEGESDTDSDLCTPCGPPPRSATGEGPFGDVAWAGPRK
KCNQ2 pot baseline = second read-out of KCNQ2 pot, no call of its own (marks repeat the call); B-score; compound at 10 µM; measured here: initial fluorescence intensity artifact check;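 brightness before thallium and not channel activity; 0 = typical well and far values either way flag optical interference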
* hit, by the source's call.

SMILES,KCNQ2 pot,KCNQ2 pot baseline
COc1ccc(N2CCN(C(=O)c3ccc4c(=O)n(Cc5ccc6c(c5)OCO6)c(=O)[nH]c4c3)CC2)cc1,1,0.48
COCCCNC(=S)N/N=C/c1ccc2c(c1)OCO2,0.02,1.2
CCC(C)N(C(=O)CSc1nc2ccc(OC)cc2[nH]1)C1CCS(=O)(=O)C1 (stereo not given),0.69,0.83
CCCCCCOc1ccc(/C(C)=N/NC2=NCCN2)cc1[N+](=O)[O-],0.72,0.03
NC(=O)CSc1nc(O)cc(=O)n1-c1ccccc1,1.7,0.16
O=C(Nc1nc(-c2ccccc2)ns1)c1ccncc1,0.57,0.21
Cc1ccc2nc3ccc(N4CCCC4)nn3c(=O)c2c1,3.3,-1.6
Cc1cccc(NC(=O)CSc2nccn2C)c1,0.79,0.1
CC1CCc2[nH]nc(C(=O)O)c2C1 (stereo not given),0.02,-0.12
Cc1ccc(Nc2nc(N)c([N+](=O)[O-])c(N3CCOCC3)n2)cc1C,1.4,-1.7
C/C(CC(=O)NC1CCCC1)=N\NC(=O)Cc1cccs1,0.72,-0.17
COc1ccc(C)cc1NC(=O)Cc1c(C(=O)O)n(C)c2ccccc12,0.86,0.16
CN(C)CCNS(=O)(=O)c1ccc(Cl)cc1,0.15,-0.27
CC(C)NC(=NCc1ccc(Cl)cc1Cl)Nc1ccccc1,0.4,-0.09
COC(=O)Cn1c(O)c(N=NC(=O)CNC(=O)c2ccncc2)c2ccccc21,0.57,-0.4
COc1cc(C2CC(=O)NC3=C2C(=O)CC(C)(C)C3)cc(OC)c1O (stereo not given),0.02,0.32
Cn1c(CCNS(=O)(=O)c2ccc(F)cc2)nnc1SCc1cccnc1,0.24,0.93
COc1cc(SC)ccc1C(=O)Nc1ccccc1C#N,1.3,0.95
CCCn1cc(C(=O)OCC)c(=O)c2cc(F)c(F)cc21,0.48,0
CC(NS(=O)(=O)c1cccc(Cl)c1)C(=O)Nc1ccc(-c2nc3ccccc3s2)cc1 (stereo not given),1.5,0.1
O=C(Cn1c(C(F)(F)F)nc2ccccc21)N1CCCC1,0.14,3.9
O=C(COC(=O)c1ccccc1[N+](=O)[O-])Nc1cc(S(=O)(=O)N2CCOCC2)ccc1N1CCCC1,0.03,-0.01
CCN(CC)C(=S)Nc1c(C)n(C)n(-c2ccccc2)c1=O,1.6,-0.42
O=C(CCCN=C1NS(=O)(=O)c2ccccc21)OCc1ccccc1,1.4,-0.94
COc1cccc(NC(=O)c2cc(-c3cccnc3)nc3c(Cl)cccc23)c1,0.08,-0.09
COc1ccc(CCNC(=O)CSc2nnnn2-c2ccc(OC)c(OC)c2)cc1OC,0.09,0.64
Cc1c(Br)c([N+](=O)[O-])nn1C(C)C(=O)NCc1ccco1 (stereo not given),0.14,-1.8
Cc1ccc(CNS(=O)(=O)c2ccc(F)c(F)c2)n1C,0.49,-2.3
CCOc1ccc(CCN2C(=O)C3C4C=CC(C4)C3C2=O)cc1OCC (stereo not given),1.3,-0.53
Cc1ccc(S(=O)(=O)N2CCCC2C(=O)O)s1 (stereo not given),0.04,-0.63
COCCNC(=O)c1cccc(S(=O)(=O)N2CC3(C)CC2CC(C)(C)C3)c1 (stereo not given),0.65,-0.06
CC(C)C(=O)Nc1cccc(NC(=O)c2cccc([N+](=O)[O-])c2)c1,0.67,0.46
CC(C)(C)C1CCc2onc(C(=O)O)c2C1 (stereo not given),0.44,0.29
CCN(CC)Cc1c(C(=O)N/N=C/c2ccncc2)nnn1-c1nonc1N,1.1,0.39
O=c1cnnc(Nc2ccc(F)cc2)[nH]1,1.6,-0.01
CC1CN(C(=O)COC(=O)c2cc(=O)c3ccccc3o2)CC(C)O1 (stereo not given),0.05,-1.5
Cc1ccc(C(C)NC(=O)C2CCCC2)cc1C (stereo not given),17*,0.25*
CC[C@@H](Nc1ncnc2c1oc1ccccc12)C(=O)O,0.07,0.31
Cc1cc(C)n(-c2ccc(C(=O)N3CC(C)OC(C)C3)cc2)n1 (stereo not given),0.11,0.1
O=C(NCCN1CCOCC1)c1ccc2ccccc2c1,1.5,0.03
Cc1[nH]nc2c1C(c1ccsc1)C1=C(CC(C)(C)CC1=O)N2 (stereo not given),0.03,0.69
COc1cccc(C(=O)Nc2ccccc2NC(=O)c2cccc(OC)c2)c1,0.08,-1.7
COc1ccccc1N(CC(=O)NCc1ccc2c(c1)OCO2)C(=O)CCC(=O)Nc1nccs1,0.08,-2.9
Cc1cccc(N2CC(C(=O)Nc3ccccc3N3CCCC3)CC2=O)c1C (stereo not given),0.83,1.2
COc1cc(/C=N/NC(=O)c2ccc(CN3c4cccc5cccc(c45)S3(=O)=O)cc2)cc(OC)c1O,0.14,-0.17
Cc1nc(SCC(=O)c2ccccc2)[nH]c(=O)c1Oc1ccc(Cl)cc1,2.2,-1
O=C(NCCNC(=O)c1ccccn1)c1ccc(-c2ccccc2)cc1,1.2,0.51
CC(=O)N1CCc2cc(C(=O)CN3CCN(c4cccc(Cl)c4)CC3)ccc21,0.03,-0.03
COc1ccc(C2CC(=O)C3=C(C2)Nc2ccccc2N(C(C)=O)C3c2ccco2)cc1 (stereo not given),0.22,-0.09
CCOC(=O)CSc1cc(CS(=O)(=O)c2ccccc2)nc(-c2ccccc2)n1,0.15,0.5

The listing continues.
SMILES,KCNQ2 pot,KCNQ2 pot baseline
COc1ccc(CNC(=O)CN(C(=O)CCC(=O)Nc2ccccn2)c2cc(C)ccc2C)cc1,1.8,-1.8
COC(=O)/C(C#N)=C1/SC=C(C)N1c1ccccc1,1.3,-0.28
COC(=O)CNC(=O)COC(=O)Cc1ccc(Cl)cc1,0.26,1.4
O=C(Nc1ccccc1C(F)(F)F)C1CCN(C(=O)Cc2ccccc2)CC1,0.04,0.28
O=C1C2C3C=CC(C3)C2C(=O)N1/N=C/c1cn(Cc2ccccc2)c2ccccc12 (stereo not given),1.2,-2.4
CCN1C(=O)[C@H]2[C@@H](c3ccc(-c4cccc(Cl)c4)cc3)N[C@@](C)(C(=O)OC)[C@H]2C1=O,0.27,0.55
Cc1ccc(NC(=O)CSc2nnc(-c3ccncc3)o2)cc1,0.85,-0.93
CCCCCCNc1c([N+](=O)[O-])cc(C)cc1[N+](=O)[O-],0.44,0
Cc1onc(C(=O)NCc2ccc(F)cc2)c1[N+](=O)[O-],0.09,-2.8
Cc1cc(CN(C)C(=O)c2cc(COc3ccc(C)c(C)c3)on2)n[nH]1,0.05,-0.49
C=CCn1c(COc2ccc(F)cc2)nnc1SCC(=O)NC1CCS(=O)(=O)C1 (stereo not given),0.57,0.6
CC(C)OCCCNC(=S)Nc1ccc2nc3n(c(=O)c2c1)CCCCC3,0.98,-1.1
C=CCc1cccc(C=Nc2cc(Br)ccc2O)c1O,2.5,0.04
CCOC(=O)N1CCN(C(=O)C2CCN(S(C)(=O)=O)CC2)CC1,0.05,-0.68
CC(OC(=O)c1cn(-c2ccccc2)nc1-c1cccnc1)C(N)=O (stereo not given),0.68,-0.51
CN(C)C(CNc1ccc(S(C)(=O)=O)cc1[N+](=O)[O-])Cc1ccccc1 (stereo not given),1.7,-0.9
CCN(CC)C(=O)Cn1cc(S(=O)(=O)Cc2cccc([N+](=O)[O-])c2)c2ccccc21,0.61,0.38
O=C(CCSc1ccccc1)Nc1nccs1,1.3,0.21
COc1ccc(CCNC(=O)CSc2nc3ccsc3c(=O)n2CC2CCC(C(=O)O)CC2)cc1OC (stereo not given),0.98,0.74
Cc1ccc(S(=O)(=O)Nc2nc(C)cc(-n3nc(C)cc3C)n2)cc1,0.39,-0.14
O=C(Cc1cccs1)N1CCC(c2nc3c(nnn3Cc3ccccc3)c(=O)[nH]2)CC1,0.24,-1.4
COC(=O)C(Cc1ccccc1)OS(N)(=O)=O (stereo not given),0.93,1.2
COc1cccc(N/C(N)=N/c2nc(CSc3ccccn3)cc(=O)[nH]2)c1,1.4,0.12
Cc1nc([N+](=O)[O-])c(C(=O)OCc2ccc(C#N)cc2)n1C,1,-0.36
O=C(Nc1cccnc1)c1ccc(COc2cc(Cl)ccc2Cl)o1,0.01,-0.24
Cc1cc(Nc2ccc(C)c(Cl)c2)nc(N2CCOCC2)n1,1.2,2.8
O=C(C[n+]1ccc(C(=O)N/N=C/c2ccc(Br)cc2)cc1)c1ccccc1,0.67,-0.39
Oc1ccc(/C=N/N(Cc2ccccc2)c2ccccc2)c(O)c1O,1.2,2.4
Cc1ccccc1NC(=O)Cc1nc(-c2ccc3ccccc3c2)cs1,1.2,0.18
CCN(CC)C1CCN(C(=O)c2ccc3nc(Cc4ccc(OC)cc4)oc3c2)C1 (stereo not given),1.3,-1.4
N#CCCN(C(=O)COC(=O)C1=NNC(=O)CC1)c1ccccc1,0.01,0
N#CC1=C(SCC(=O)Nc2ccc(C(=O)O)cc2)NC(=O)CC1c1ccco1 (stereo not given),1.1,-2.2
O=c1nc(N2CCCCC2)nc(Nc2ccccc2)[nH]1,0.32,0.53
Cc1ccc(C(=O)CCC(=O)Nc2ccccc2F)cc1,0.68,-0.01
CC(C)C(NC(=O)C12CC3CC(CC(C3)C1)C2)C(=O)O (stereo not given),0.49,-0.11
CC(NC(=O)c1ccc(F)cc1)C(=O)NC1=NCCS1 (stereo not given),0.35,1.7
CC1CCN(C(=O)c2ccc(CS(=O)(=O)Cc3ccccc3)cc2)CC1,0.33,2
CC(C)C1N=C2c3ccccc3N=C(SCC(=O)NCCc3ccc(S(N)(=O)=O)cc3)N2C1=O (stereo not given),0.87,0.83
COc1cc(-c2nnc(SCC(=O)NC3CCCC3)n2C)cc(OC)c1O,0.95,-2
COC(=O)c1nc(N)sc1-c1ccc(Cl)cc1,2.5,-0.07

One compound at a time, as listed above. Order of values: KCNQ2 pot, KCNQ2 pot baseline
`CC(NC(=O)c1ccc(F)cc1)C(=O)NC1=NCCS1` (stereo not given) across the screens: 0.35, 1.7
`CC(C)C1N=C2c3ccccc3N=C(SCC(=O)NCCc3ccc(S(N)(=O)=O)cc3)N2C1=O` (stereo not given) across the screens: 0.87, 0.83

(listing goes on)
SMILES,KCNQ2 pot,KCNQ2 pot baseline
COc1ccccc1C(=O)NC(=O)COC(=O)C1CC1,1.1,0.49
O=C1N/C(=C\c2ccc(N3CCOCC3)c(F)c2)C(=O)N1Cc1ccccc1,2.3,-2.2
CN(C)N1C(N)=C(C#N)C(c2ccccc2F)C2=C1CC(C)(C)CC2=O (stereo not given),0.48,-0.01
Cc1ccc(NC(=O)C2CC(Cl)=CCC2C(=O)O)c([N+](=O)[O-])c1 (stereo not given),0.28,0.9
CNS(=O)(=O)c1cc(C(=O)O)ccc1OC,1.6,-0.65
COc1ccccc1C(=O)Nc1ccc(-c2nnn(CC(=O)N3CCOCC3)n2)cc1,0.09,0.09
Cc1cc(C)n(-c2ccc(F)cc2)c(=O)c1C#N,0.06,1
CCCCn1c(N)c(N(CCOC)C(=O)COC(=O)COc2cc(C)ccc2Cl)c(=O)[nH]c1=O,0.07,0.53
COCCN(C(=O)COC(=O)CCCOc1ccccc1)c1c(N)n(Cc2ccccc2)c(=O)[nH]c1=O,0.52,-0.28
COc1ccc(C(=O)NC2CCN(S(=O)(=O)Cc3ccccc3)CC2)c(OC)c1,1.2,0.4

Part of the list above in another layout.
Cc1ccc(NC(=O)C2CC(Cl)=CCC2C(=O)O)c([N+](=O)[O-])c1 (stereo not given)
- KCNQ2 pot = 0.28
- KCNQ2 pot baseline = 0.9

COc1ccccc1C(=O)NC(=O)COC(=O)C1CC1
- KCNQ2 pot = 1.1
- KCNQ2 pot baseline = 0.49

O=C1N/C(=C\c2ccc(N3CCOCC3)c(F)c2)C(=O)N1Cc1ccccc1
- KCNQ2 pot = 2.3
- KCNQ2 pot baseline = -2.2

CN(C)N1C(N)=C(C#N)C(c2ccccc2F)C2=C1CC(C)(C)CC2=O (stereo not given)
- KCNQ2 pot = 0.48
- KCNQ2 pot baseline = -0.01

Other records
SMILES,KCNQ2 pot,KCNQ2 pot baseline
O=C(CSc1nc2ccccc2nc1SCC(=O)N1CCCCC1)N1CCCCC1,0.43,-0.05
Cc1ccc(NC(=S)N2CCc3[nH]c4ccccc4c3C2)cc1,0.31,0.37
COc1ccc(C(C)C)cc1S(=O)(=O)NCC1CCCO1 (stereo not given),0.06,0.3
CN(c1ccc(OCC(=O)N2CCN(c3ccc(F)cc3)CC2)cc1)S(=O)(=O)c1cccs1,0.02,-0.82
Cc1cccc(-c2nnc(SCC(=O)C(C)(C)C)n2C)c1,0.03,-0.54
Cc1ccc(Nc2nc3nonc3[nH]c2=O)cc1C,1.7,-0.26
Nc1cc(N)nc(SCc2cccc(F)c2)n1,0.02,-1.9

A portion of the library; the hit share may differ from the screen's.
